T cruzi repl: blocks replication of Trypanosoma cruzi; T. cruzi beta-gal in NIH3T3, luminescence, 90 h; AID 1885; inhibition, % (test concentration not listed); hit rate 1.4% among 300,000;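 active = mean inhibition across valid replicates above about 55%, limit read from the data; inconclusive = mean below that limit but half or more replicates reach it; inactive = mean below it, under half of replicates reach it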;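 note: signal also drops with host cell toxicity which is not excluded here; 0% = plate median of DMSO wells and 100% = zero luminescence signal; higher percent means less beta-gal luminescence so fewer parasites; stock transfer was 50 nL into about 50 µL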
Vif A3G: inhibitors of Vif binding to APOBEC3G peptide, primary screen, biochemical, TR-FRET, GST-Vif 1-94, biotin-A3G peptide, dose response retest (AID 1117319). TR-FRET GST-Vif / biotin-A3G peptide binding; higher % means a stronger effect; test concentration not given here; strong numbers were not always called active. one-dose inhibition, %; IC50 in µM for titrated hits. hit rate 0.57% among 260,000;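 active = above the screen mean plus three standard deviations and confirmed in dose response; inconclusive = results disagree or hit not tested in dose response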;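 note: Vif residues 1-94 fused to GST binding biotinylated APOBEC3G peptide 110-148; 0% = full assay without inhibitor and 100% = GST in place of GST-Vif; retest series ran down from 100 µM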
LANA-H2B inh: blocks KSHV LANA binding to histone H2A/H2B; cell-free LANA-H2A/H2B peptide, fluorescence polarization; inhibition, % (no concentration beside the values); hit rate 0.6% among 320,000; AID 2629; in the data active = inhibition mostly above about 10%, no sharp cut-off; inactive = mostly below about 6.7%;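 note: stock transfer was 7.5 nL into about 10 µL; 0% = median of vehicle wells and 100% = median of positive control wells; one replicate is shown; the record names a cut of 25% in any replicate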
Target sequence (Q9QR71 whole entry, looked up): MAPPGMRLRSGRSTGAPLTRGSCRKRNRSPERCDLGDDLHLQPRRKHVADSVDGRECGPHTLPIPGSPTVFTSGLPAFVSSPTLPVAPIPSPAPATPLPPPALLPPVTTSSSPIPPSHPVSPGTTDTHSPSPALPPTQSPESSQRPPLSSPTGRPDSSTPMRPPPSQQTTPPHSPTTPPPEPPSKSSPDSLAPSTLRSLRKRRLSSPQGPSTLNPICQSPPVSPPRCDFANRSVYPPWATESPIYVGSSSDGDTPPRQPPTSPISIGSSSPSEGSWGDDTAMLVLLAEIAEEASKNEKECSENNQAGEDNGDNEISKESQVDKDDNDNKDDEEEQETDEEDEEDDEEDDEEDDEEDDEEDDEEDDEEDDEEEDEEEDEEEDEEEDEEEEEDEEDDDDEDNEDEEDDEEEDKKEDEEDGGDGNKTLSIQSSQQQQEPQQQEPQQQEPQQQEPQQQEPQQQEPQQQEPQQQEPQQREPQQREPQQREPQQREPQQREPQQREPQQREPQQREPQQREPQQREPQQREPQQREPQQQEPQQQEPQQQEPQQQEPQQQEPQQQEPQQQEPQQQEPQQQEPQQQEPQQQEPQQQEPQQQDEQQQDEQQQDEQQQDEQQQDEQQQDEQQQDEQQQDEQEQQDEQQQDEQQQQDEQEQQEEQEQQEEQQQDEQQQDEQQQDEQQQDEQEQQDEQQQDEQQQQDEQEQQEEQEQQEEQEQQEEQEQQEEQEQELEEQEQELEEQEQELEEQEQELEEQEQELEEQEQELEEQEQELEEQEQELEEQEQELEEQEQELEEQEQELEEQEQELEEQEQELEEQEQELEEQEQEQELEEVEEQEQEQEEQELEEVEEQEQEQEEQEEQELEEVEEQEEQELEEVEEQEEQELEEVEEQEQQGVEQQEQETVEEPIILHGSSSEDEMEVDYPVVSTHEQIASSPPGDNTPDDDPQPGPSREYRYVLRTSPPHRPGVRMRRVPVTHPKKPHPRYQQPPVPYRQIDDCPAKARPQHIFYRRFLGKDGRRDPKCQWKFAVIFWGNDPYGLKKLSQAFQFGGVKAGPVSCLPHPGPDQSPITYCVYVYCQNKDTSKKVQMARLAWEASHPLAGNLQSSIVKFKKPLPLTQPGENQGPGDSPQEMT
MLL AF4-AF9 inh: MLL-AF4/AF9 protein interaction inhibition; P42568; inhibition, % at 10 µM; AlphaScreen, biotin-AF4 peptide binding to FLAG-AF9; AID 651704; hit rate 0.47% among 350,000;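 active = every replicate reaching a set inhibition limit, whatever the replicate mean, cut at about 25% in these data; inconclusive = mean inhibition reaches that limit but some replicates miss it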;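 note: 0% = plate neutral control median and 100% = total signal loss; the record names both 10 and 1 µM as test concentration; the first replicate is given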
RanGTP-Impb inh: disruptors of Ran-importin-beta complex formation – biochemical, FRET, CFP-Ran, YFP-importin-beta, homogeneous, primary screen. cell-free CFP-Ran/YFP-importin-beta FRET ratio. inhibition, % (concentration not given with the values). hit rate 1.1% among 300,000. AID 2216;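 active = most replicates above 15%; inconclusive = exactly half above 15%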;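 note: 0% = DMSO wells and 100% = Ran loaded with GDP instead of GTP; wells of about 40 µL received 100 nL stock; the first replicate is given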
Beta apoptosis: beta cell apoptosis inhibition; INS-1E cytokine-induced death, ATP luminescence, 48 h; percent of positive-control rescue, neutral wells zero; protection from apoptosis, % (no concentration beside the values); hit rate 0.8% among 300,000;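 active = all replicates at 75% or more, or half of them and the mean; inconclusive = half reach 75% but not the mean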;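 note: 0% = cytokine-treated negative control wells and 100% = positive control rescue; higher means more ATP so stronger rescue from cytokine killing; wells of about 40 µL received 100 nL stock; the first replicate is given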
Calb FLC: affects C. albicans growth with fluconazole; C. albicans CaCi-2 (fluconazole-resistant clinical isolate) + fluconazole, Alamar Blue growth, 48 h; growth inhibition, % (concentration not given with the values); hit rate 0.57% among 300,000; AID 1979;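 active = most replicates above 75%; inconclusive = exactly half above 75%; inactive = most below 75%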;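 note: all wells also contain fluconazole at 8 µg/ml as a sub-toxic cotreatment; 0% = median of DMSO wells and 100% = median of geldanamycin control wells; wells of about 8 µL received 7.5 nL stock; the first replicate is given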
A1 inh: inhibitors of the anti-apoptotic protein A1, read as caspase activation | AID 2462 | MEF A1-2A-BIM cells, Caspase-Glo 3/7 luminescence, 3 h; percent of clofoctol response, vehicle zero | hit rate 0.066% among 330,000 | caspase activation, % (test concentration not listed);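 active = over half of replicate activation scores above 10%, or exactly half above 10 with the replicate mean above 10; inconclusive = replicate mean below 10 yet half the replicates above 10; inactive = over half of replicates below 10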;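 note: wells of about 30 µL received 50 nL stock; many hits fall short of the cut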
Numbers without * were called inactive; ? = inconclusive; / = no result given; & = joins results of further samples. Only part of the results is shown, so the mix of outcomes need not match the whole.

Below each compound: T cruzi repl, Vif A3G, LANA-H2B inh, MLL AF4-AF9 inh, RanGTP-Impb inh, Beta apoptosis, Calb FLC, A1 inh
1. CC(C)=CCOc1c2occc2cc2ccc(=O)oc12
    5, -1%, -0.6, -2.1, 1.1, -3, 5, 0.3
2. CCOC(=O)c1nc2ccccc2c(=O)n1-c1ccc(C)cc1C
    -16, 17%, 2.8, /, 9.4, 2, 12, 0.1
3. CCOc1ccc(-n2c(O)c(N=Nc3c(C)n(C)n(-c4ccccc4)c3=O)c(=O)[nH]c2=O)cc1
    -13, 2%, -3.5, 1.5, 5.2, -2, 1, 0.5
4. CCCCCn1c(=O)c(C(=O)Nc2c(C)n(C)n(-c3ccccc3)c2=O)c(O)c2ccccc21
    -4, -3%, -6.1, /, -5.7, 0, -5, 1.0
5. OCC[N+]12CCC(CC1)C(C(O)(c1ccccc1)c1ccccc1)C2 (centres undefined)
    -7, 29%, -0.4, 0.2, -1.7, -12, -5, 0.2
6. CN1CCC(N(C)c2ccc(C(N)=O)cc2[N+](=O)[O-])CC1
    6, 29%, 3.1, -2.3, 3.0, 7, -3, -0.3
7. O=C(O)c1ccc(-[n+]2c(-c3ccccc3)cc(-c3ccccc3)cc2-c2ccccc2)cc1
    2, /, 0.5, -4.2, -3.2, 1, -14, -0.8
8. O=P(Oc1ccccc1)(Oc1ccccc1)c1ccccc1
    17, /, 2.2, -37, 2.7, -3, -6, 0.9
9. COc1ccc(C=C2C(=O)N(C)C(=O)N(C)C2=O)cc1COc1ccc(NC(C)=O)cc1
    9, -8%, -1.7, -0.4, ?, -3, -2, 0.4
10. N[C@@H](Cn1oc(=O)[nH]c1=O)C(=O)O
    -11, /, -4.5, -1.9, 1.8, -2, /, -0.9
11. CCOC(=O)C1(CCOc2ccccc2)CCN(C2Cc3ccccc3C2)CC1
    36, -9%, -2.7, -0.3, 1.1, -7, -12, 0.6
12. CC(CN(C)C1CCN(C)CC1)c1ccccc1 (centres undefined)
    26, /, 2.1, -6.0, 0.6, -4, 3, -0.4
13. CCOP(=O)(OCC)C(C)(C)NC(=O)C(Cl)(Cl)Cl
    -4, 19%, 2.0, /, 85*, -3, -12, 1.1
14. Cc1c(N=Cc2c(O)n(CCc3ccc(F)cc3)c(=O)[nH]c2=O)c(=O)n(-c2ccccc2)n1C
    3, -1%&-7%, -3.4, /, 3.0, 5, -12, -0.7
15. COc1ccc(Cn2c(O)c(/C=N/NC(=O)c3ccccc3)c(=O)[nH]c2=O)cc1
    -40, ?, -0.3, 9.3, 3.8, -8, 81*, -1.1
16. CN1C(=O)C(Cc2cccc3ccccc23)C(=O)N(C)C1=O
    -15, ?, 0.0, /, -3.2, -3, 14, -1.0
17. O=C(O)c1cccc(N=Nc2c(O)[nH]c(=O)[nH]c2=O)c1
    -13, 8%, 0.5, 2.0, 0.7, 5, 7, -6.3
18. COc1ccc(-n2nc(C(=O)NCC(=O)N3CCC4(CC3)OCCO4)c3ccccc3c2=O)cc1OC
    -10, /, 12, -3.7, 4.6, -3, 15, 1.6
19. CN1CCN(c2ccc(C=O)cc2)CC1
    16, -6%, 0.9, /, -1.3, -6, 3, 0.0
20. O=[N+]([O-])c1ccc(N2CCNCC2)c(Cl)c1
    -5, ?, -1.5, -0.4, -4.7, -4, 1, 0.2
21. CN1CCN(S(=O)(=O)c2cnc(Cl)c(Br)c2)CC1
    -29, /, 2.5, /, -1.2, -1, 1, -0.3
22. O=c1[nH]c(=O)n(Cc2ccccc2)c(O)c1C=NCCN1CCOCC1
    -20, -1%, 5.1, /, 5.0, /, -5, 0.9
23. COc1ccc(N2C(=O)NC(=O)/C(=C\c3cn(C)c4ccccc34)C2=O)cc1
    2, -13%, 5.9, /, -15, -5, 2, -0.5
24. CCc1ccc(CNCCc2c[nH]c3ccccc23)cc1
    38, /, 1.0, 18, -4.1, -1, -29, -0.4
25. C=CCn1c(=O)c(C=Nc2cccc([N+](=O)[O-])c2)c(O)n(CCCC)c1=O
    -13, 3%, 2.7, /, -3.1, -8, -3, -0.2
26. COc1ccc(C(C)=O)cc1Cc1c(O)[nH]c(=S)[nH]c1=O
    1, -10%, 1.9, -9.2, 1.5, -9, -1, 0.5
27. CC(C)(C)[C@]1(O)C[C@@H]2OC(=O)C[C@@]23C(=O)O[C@@H]2OC(=O)[C@H](O)[C@]213
    -10, -3%, 3.3, /, -0.9, -4, -5, 1.6
28. COc1cc2c3cc1Oc1c(OC)c(OC)cc4c1[C@H](Cc1ccc(cc1)Oc1cc(ccc1O)C[C@H]3N(C)CC2)N(C)CC4
    /, /, 4.5, -21, /, 17, /, 0.5
29. O=c1c2ccccc2nc(Cc2cccc([N+](=O)[O-])c2)n1-c1ccc(O)cc1
    -5, -1%, -1.1, -9.7, -2.8, 2, 6, 0.6
30. CCOC(=O)C(O)(c1cn(C)c2ccccc12)C(F)(F)F (centres undefined)
    0, -7%, 6.7, /, 2.6, -3, -10, 0.2

Later entries
Below each compound: T cruzi repl, Vif A3G, LANA-H2B inh, MLL AF4-AF9 inh, RanGTP-Impb inh, Beta apoptosis, Calb FLC, A1 inh
31. Cc1ccc(S(=O)(=O)N2CCCCC2)cc1NC(=O)CN1CC=C(c2ccccc2)CC1
    27, /, 2.1, /, 0.1, 2, -23, 0.7
32. CSCCC(N=Cc1c(O)n(-c2ccc(F)cc2)c(=O)[nH]c1=O)C(=O)OC(C)(C)C (centres undefined)
    -11, -7%, 2.9, /, ?, -2, 1, -0.4
33. FC(F)(F)c1ccccc1N1CC1c1ccncc1 (centres undefined)
    2, 1%, -2.6, 1.6, 3.0, /, -2, 1.1
34. CC(C)CCn1c(N)c(C(=O)OCC2CCCO2)c2nc3ccccc3nc21 (centres undefined)
    18, 25%, 3.0, /, ?, -2, 2, 0.9
35. CCN(CC)C(=O)c1ccc(NC(=O)c2sccc2-c2ccccc2)cc1
    14, /, -0.8, -2.0, 4.8, 3, 1, 0.8
36. CNCCc1c(C)n[nH]c1C
    14, 10%, 4.0, /, 1.8, 5, 6, 0.3
37. Cn1c(O)c(C=NCCN2CCN(C(=O)c3ccccc3)CC2)c(=O)n(C)c1=O
    8, 7%, -0.5, /, 1.1, -6, 10, 0.3
38. CC1C(OC(=O)CCC(=O)NC(C)(C)CO)O[C@H]2OC3(C)CC[C@H]4[C@H](C)CCC1C24OO3 (some centres undefined)
    8, /, 2.3, 1.4, -0.1, 22, 23, 1.6
39. CCCCNC(=S)N1CCn2cccc2C1c1cccnc1 (centres undefined)
    65*, 14%, -3.5, 5.2, -8.0, -3, 9, 0.9
40. COc1ccc(CNCCc2cccc(F)c2)c2ccccc12
    47, /, -2.5, /, 3.9, /, 67, 0.3
41. O=C(O)C1=CC2c3ccccc3C1c1ccccc12
    -6, 1%, -5.5, 0.2, -0.3, -6, 10, 0.3
42. CC1CCN(CC(=O)c2ccc3c(c2)OCCO3)CC1
    -9, -3%, 0.0, 2.2, 2.0, -5, -34, 2.9
43. Cc1ccc(S(=O)(=O)CC(C)(O)C(=O)Nc2cccc(C(F)(F)F)c2)cc1 (centres undefined)
    -6, 0%, -2.2, /, -4.4, -3, -19, 0.0
44. CN1C(=O)C(c2ccc([N+](=O)[O-])cc2[N+](=O)[O-])C(=O)N(C)C1=O
    -8, -7%, -0.5, 0.5, 7.3, -7, 0, -1.3
45. O=c1c2ccccc2nc(/C=C/c2ccco2)n1-c1ccccc1O
    -3, ?, 1.7, 13, -4.2, -10, 5, 2.3
46. CSCCC(NC(=O)CCC(=O)OC1CC[C@H]2[C@@H]3CC[C@H]4CC(=O)CC[C@]4(C)[C@H]3CC[C@]12C)C(=O)O (some centres undefined)
    4, 3%, -0.5, 1.8, 4.1, 2, -2, 0.8
47. CC(C)(C)n1cc(C(=O)c2ccccc2)cc1-c1ccccc1
    1, -4%, -3.8, -0.5, 1.2, 2, /, 0.2
48. CCCN1CCCC(C(=O)c2cc(C)c(OC)c(C)c2)C1 (centres undefined)
    -2, -3%, -7.5, -1.1, 0.3, /, -22, 0.6
49. Cc1ccc(Cn2cc(C=O)c3ccccc32)cc1
    -3, -5%, -3.7, -2.2, -2.7, -11, 2, -0.8
50. O=c1[nH]c(=O)n(Cc2ccccc2Cl)c(O)c1/C=C1/C=CC=N1
    0, 33%, 0.3, -1.5, 1.8, 3, -7, -0.3
51. Cc1ccc(OP(=O)(NCc2ccccc2)Oc2ccc(C)cc2)cc1
    20, 1%, -1.5, /, ?, 6, -32, ?
52. C/C=C1\CN2[C@H]3C[C@@]45c6ccccc6N(C)[C@H]4[C@@H]2CC1C3[C@H]5O (some centres undefined)
    -11, /, 3.8, -0.8, 0.0, -3, -2, -1.6
53. CC(C(O)c1ccccc1)N(C)CCn1cnc2c1c(=O)n(C)c(=O)n2C (centres undefined)
    -3, 5%, -2.4, -1.1, 2.1, 0, -8, 0.3
54. CCCNC(=O)N1[C@H]2CC[C@@H]1C(C(=O)OC)=C(c1ccc(OC(F)(F)F)cc1)C2
    /, /, -1.6, -7.7, /, -2, /, 1.0
55. Cc1ccccc1NS(=O)(=O)c1ccc(OCC(=O)N2CCN(C)CC2)cc1
    ?, /, -6.3, -0.7, -1.4, 4, 3, 0.7
56. CCCNc1nc(OC)nc(N2CC3CC(C2)c2cccc(=O)n2C3)n1 (centres undefined)
    4, -11%, 3.9, -1.8, ?, -4, -6, 0.2
57. Cc1ccc(CN2CCCN(Cc3ccc(C)cc3)S2(=O)=O)cc1
    -8, -7%, -0.2, -5.6, 2.9, -6, ?, 0.6
58. CCCCn1c(O)c(C(CC)=NCCCn2ccnc2)c(=O)[nH]c1=O
    -2, -7%, 2.2, -1.0, 0.5, -3, -5, -0.5
59. Cc1cc(Br)c(NC(=O)CN2CC=C(c3ccccc3)CC2)c(Br)c1
    72*, -10%, 3.0, 4.7, -2.6, -4, -6, 0.0
60. CCC(CC)C1C(C#N)=C(N)Oc2c1c(=O)oc1ccccc21 (centres undefined)
    6, 8%, 1.4, /, 5.8, -7, 13, -0.1

Continuation:
Below each compound: T cruzi repl, Vif A3G, LANA-H2B inh, MLL AF4-AF9 inh, RanGTP-Impb inh, Beta apoptosis, Calb FLC, A1 inh
61. CCCCn1c(=O)c(C(=O)NCc2ccccc2OC)c(O)c2ccccc21
    31, /, 5.0, 0.2, -4.1, 9, -55, 0.7
62. CCc1c(C)nc(N)nc1N1N=C1SC
    -11, -5%, 1.5, /, 0.5, -11, -1, -0.2
63. CCC(CO)(C(=O)OC1C[N+]2(C)CCC1CC2)c1ccccc1 (centres undefined)
    0, -2%, 1.2, -1.7, 1.2, -6, -2, 1.1
64. CC(=NCc1ccco1)c1c(O)n(-c2ccc(Cl)cc2)c(=O)[nH]c1=O
    8, /, -0.6, -1.5, 2.0, -3, -10, -0.5

Screens (PubChem)
